# Sa helicase inh – inhibitors of S. aureus replicative helicase, primary screen, biochemical, fluorescence unwinding readout; replicative DNA helicase (DnaC/DnaB), Staphylococcus aureus; purified S. aureus helicase, fluorescence unwinding assay; about half of the hits fall short of the stated cut; inhibition, %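 (tested at about 80 µM)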; 120,000 tested, 0.05% active; AID 485395, 2010;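 active = both duplicates at 50% or more, or one of them with a favoured structure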;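 also: 0% = mean of negative control wells and 100% = mean of positive control wells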
# MgrA-DNA mod – S. aureus MgrA activity modulators, primary screen, biochemical, S. aureus Newman, fluorescence polarization | inhibition, %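 (about 10 µg/mL by stock and volumes)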 | 84,000 tested, 0.13% active | MgrA-DNA binding;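 active = above 50% in either of two replicates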;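 also: 0% = protein plus DNA without compound and 100% = DNA alone without protein; higher means less MgrA bound to DNA so lower polarization; one replicate is shown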
# Active calls of the source: *; x = no result given. The list is partial; rates above refer to the full screens.
# Values run as follows: MgrA-DNA mod | Sa helicase inh
COc1ccc(NC(=O)c2ccc(Cl)cc2)cc1
→ 0.0 | x
O=C(Nc1nc(SCc2ccc(Cl)cc2)n[nH]1)C1CC(=O)N(C2CCCC2)C1 (stereo not drawn)
→ x | -3
COc1ccc2oc(=O)c(C(=O)N3CCC(C(N)=O)CC3)cc2c1
→ 1.0 | 17
Cc1noc(C)c1COc1ccc2ccccc2c1Br
→ x | -5
CC1(C)OC(=O)N(CCCN2CCOCC2)C1(C)O (stereo not drawn)
→ x | -1
Cn1cccc1C(=O)OCc1cc(=O)oc2cc(O)ccc12
→ x | 18
COc1ccccc1/C=C(/C(=O)OCc1cc(C)on1)c1ccccc1
→ x | -10
Cc1nn(-c2ccccc2)nc1C(=O)ONC(=O)Cc1ccccc1
→ x | 0
CCc1ccccc1NC(=O)CCC(=O)N1CCSc2ccccc21
→ 2.4 | -18
O=c1[nH]c2ccccc2c(O)c1C1=NS(=O)(=O)c2ccccc2N1
→ -1.0 | 1
Cc1noc(C)c1-c1nnc(-c2ccc(Cl)cc2)o1
→ -4.2 | x
CCCCNC(=O)c1c(N)no[n+]1[O-]
→ -0.2 | -4
CC(C)CCn1c(SCc2ccc(F)cc2)nc2nccnc2c1=O
→ -0.2 | 4
Cn1nc(C(=O)NCCCN2CCN(CCCNC(=O)c3ccc(=O)n(C)n3)CC2)ccc1=O
→ x | 11
Cc1ccc(N=C2C(=O)Nc3ccccc32)cc1
→ x | 5
Cc1ccc2[nH]c(=O)c(C=NC(CO)(CO)CO)c(O)c2c1
→ -0.2 | -7
Cc1cc(N)n(-c2nc(C)nc3sc4c(c23)CCC(C)C4)n1 (stereo not drawn)
→ x | 0
CNCc1ccccc1Br
→ x | -6
O=C(Nc1ccccc1)C1CC2CCCC(C1)C2=O (stereo not drawn)
→ 0.4 | -29
CCOC(=O)C1CCCC1=O (stereo not drawn)
→ -1.3 | -7
Cc1ccc(C(=O)OCc2c(C#N)oc3ccc(Br)cc23)cc1C
→ x | 6
CN(C)c1cc[n+](CC(=O)N2CCCc3ccccc32)cc1
→ -0.3 | 10
C=CCNC(=O)C1CCN(c2ncccn2)CC1
→ 0.0 | x
CC(C)(C)CC[n+]1ccc(/C=N/O)cc1
→ -1.3 | 8
CCCNC(=O)Cn1sc2nc(C)cc(C)c2c1=O
→ x | 8
CCN1C(=O)CC(C(=O)Nc2ccc(OC)cc2)SC1=Nc1ccccc1 (stereo not drawn)
→ x | 28
Fc1ccc(CN2CCN(c3ncccn3)CC2)cc1F
→ -3.2 | 10
OC1CCN(Cc2cccc(Br)c2)CC1
→ 0.9 | -6
Cc1noc(C)c1COc1ccc(CC(=O)NC2CCCCCC2)cc1
→ x | -5
O=C1CN(C(=O)CCc2ccccc2)c2ccccc2N1
→ -1.0 | 13
O=C(O)c1ccccc1SCC(=O)N1CCCC1
→ -0.7 | -2
CC(=NCc1ccncc1)c1ccccc1O
→ 2.0 | x
CCC(C)NC(=O)CSc1nc2ccc(N3CCOCC3)cc2c(=O)n1Cc1ccc2c(c1)OCO2 (stereo not drawn)
→ x | -8
CCn1c(C(=O)O)c(CNC2CCC(C)CC2)c2ccccc21 (stereo not drawn)
→ 0.0 | -3
CC(C)Cn1c(C(O)c2ccccc2)nc2ccccc21 (stereo not drawn)
→ -1.2 | 14
FC(F)(F)c1[nH]ncc1-c1ccccc1
→ -2.5 | x
COC(=O)c1ccccc1NC(=O)COC(=O)c1ccco1
→ 0.7 | 4
CCC12CN(S(=O)(=O)c3ccc(C)cc3)CC(CC)(CN(S(=O)(=O)c3ccc(C)cc3)C1)C2=O
→ x | 20
COc1cc(/C=C2\N=C(c3cc([N+](=O)[O-])ccc3Cl)OC2=O)cc(OC)c1OC
→ 0.9 | x
NS(=O)(=O)c1ccc(NC(=O)c2cc(-c3ccccc3)nc3ccccc23)cc1
→ -2.3 | x
Brc1c(-c2ccccc2)nc2n1CCC2
→ x | 18
CC(C)(C)c1ccc(OCCOc2ccc(C=C3C(=O)NC(=S)NC3=O)cc2)cc1
→ 51 | x
Cc1onc(-c2c(F)cccc2Cl)c1C(=O)Nc1ccccc1N1CCOCC1
→ -0.8 | x
CCOC(=O)c1c(CCc2ccc3c(c2)OCO3)csc1N
→ x | 10
CCOC(=O)c1c(N(C)S(C)(=O)=O)sc(C)c1C
→ 0.9 | x
CC(C)(Oc1ccc(Cl)cc1)C(=O)N1CCN(c2ccc(C(F)(F)F)cn2)CC1
→ x | 8
CC(C)N(C(=O)NC(=O)Nc1ccc(C=C(C#N)C#N)cc1)S(C)(=O)=O
→ x | -10
COCn1c(COc2ccc3ccccc3c2)nc2ccccc21
→ -0.3 | -1
c1csc(-c2nc(-c3ccc(-c4ccon4)s3)no2)c1
→ -1.1 | x
O=C1CSc2ccc(C(F)(F)F)cc2N1
→ -1.9 | -13

# At a glance, some entries already given.
# Values run as follows: MgrA-DNA mod | Sa helicase inh
CCOC(=O)c1c(CCc2ccc3c(c2)OCO3)csc1N
→ x | 10
CCOC(=O)c1c(N(C)S(C)(=O)=O)sc(C)c1C
→ 0.9 | x
CC(C)(Oc1ccc(Cl)cc1)C(=O)N1CCN(c2ccc(C(F)(F)F)cn2)CC1
→ x | 8
CC(C)N(C(=O)NC(=O)Nc1ccc(C=C(C#N)C#N)cc1)S(C)(=O)=O
→ x | -10
COCn1c(COc2ccc3ccccc3c2)nc2ccccc21
→ -0.3 | -1
c1csc(-c2nc(-c3ccc(-c4ccon4)s3)no2)c1
→ -1.1 | x
O=C1CSc2ccc(C(F)(F)F)cc2N1
→ -1.9 | -13

# Continuation.
# Values run as follows: MgrA-DNA mod | Sa helicase inh
O=C(Cn1cnc2c(cnn2-c2ccccc2)c1=O)NCCc1ccccc1
→ x | 16
Nc1ccccc1C(=O)NCCN1CCNC1=O
→ -1.2 | x
Cc1ccc(C(=O)N2CCN(Sc3ncnc4sccc34)CC2)cc1
→ -2.5 | x
O=C(CSc1ncc(-c2ccc(F)cc2)n1Cc1ccco1)OC1CCCCC1
→ 3.3 | -6
CCCCn1c(Cc2ccccc2)nc2ccccc21
→ 1.4 | 5
COC(=O)c1ccc(Cl)cc1NS(=O)(=O)c1cccc(C(F)(F)F)c1
→ 2.2 | x
CC1(C)C(C(=O)ON2C(=O)CCC2=O)C1(C)C
→ 1.5 | x
CC1CN(C(=S)SCC(=O)c2ccccc2)CC(C)O1 (stereo not drawn)
→ 1.5 | 5
COC(=O)C1=C(Nc2ccccc2NC(=O)COCC(=O)O)CSC1
→ -1.8 | x
Cn1nc(-c2ccc(Cl)cc2)cc1NC(=O)Cn1nnc(-c2ccccc2)n1
→ x | 19
O=C(CC1C(=O)NCCN1C(=O)c1ccccc1)Nc1ccc(F)cc1 (stereo not drawn)
→ -0.4 | x
Cc1cc(C)cc(OCC(O)CN2CCN(C(=O)c3ccco3)CC2)c1 (stereo not drawn)
→ x | 13
CN(C)c1ccc(NC(=O)c2ccccn2)cc1
→ x | -22
COc1ccc(N2CCN(C3OC(=O)c4ccccc43)CC2)cc1 (stereo not drawn)
→ x | 2
CCSc1nnc(-c2cccc(S(=O)(=O)N3CCOCC3)c2)n1C1CCCC1
→ x | -7
CC(=O)NC(=O)c1cc2ccccc2oc1=Nc1ccc(C(F)(F)F)cc1
→ 0.0 | 11
O=C(COC(=O)CCc1c[nH]c(=O)[nH]1)Nc1ncccn1
→ 2.2 | 0
CC(C)N1CCC(=O)N(c2ccc(C(C)(C)C)cc2)C1=O
→ x | -15
Cc1cc(=O)oc2c1ccc1oc(N=Nc3ccccc3)c(O)c12
→ x | 0
O=C(O)/C=C\C(=O)NCC1(c2ccccc2)CCOCC1
→ -2.3 | 8
COC(=O)C(C)C1Sc2ccccc2NC1=O (stereo not drawn)
→ 0.6 | 12
CN1CCc2c(sc(NC(=O)c3cc(Cl)sc3Cl)c2C(N)=O)C1
→ x | 4
O=C(NCCCN1CCCCC1)c1cc(Sc2ccc(F)cc2)nc2ccccc12
→ -0.2 | 6
Cc1[nH]nc2c1C(c1ccc(C(C)C)cc1)N(C)C2=O (stereo not drawn)
→ -2.2 | 5
CC(C)(CN)C(O)C(=O)O (stereo not drawn)
→ 1.2 | 0
N#CC(C#N)=C1CCC(=C(C#N)C#N)CC1
→ x | -133
COc1cc(/C=N/OC(=O)c2ccc(Cl)cc2Cl)cc(OC)c1OC
→ 0.1 | x
CC(NC(=O)CSc1nnc(-c2ccco2)n1-c1ccccc1)C1CC2CCC1C2 (stereo not drawn)
→ x | 6
N#C/C(=C\Nc1cc(C(F)(F)F)cc(C(F)(F)F)c1)S(=O)(=O)c1cccs1
→ -1.1 | x
CCOC(=O)N1CCN(C(=S)NC2CCCC2)CC1
→ 5.2 | 6
O=C(Cn1cccc1)Nc1ccccc1Cl
→ 0.4 | 10
CC1(C)C/C(=N\O)c2c(nc(C(F)(F)F)c3[nH]c4ccccc4c23)C1
→ 1.1 | 11
CN(C)c1cccc(NC(=O)c2ccco2)c1
→ 1.4 | -17
CONC1=CC(=O)c2ccccc21
→ x | -9
CSCc1c(C)noc1-c1cc(C)on1
→ -1.7 | x
Cc1nc2ccc(NC(=O)/C=C/c3ccc(Br)o3)cc2s1
→ x | 7
COc1ccc(-n2cnc3cc(C(=O)NC4CCCCC4C)ccc32)cc1 (stereo not drawn)
→ -0.3 | 5
Cc1ccc(C(=O)NC(CC(=O)O)C(F)(F)F)cc1 (stereo not drawn)
→ -4.8 | -13
CC(C)(C)c1ccc2[nH]c3c(cc(Nc4ccccc4)c4c(=O)c5ccccc5c(=O)c43)oc2c1
→ -0.2 | x
COc1cccc(-c2noc(N)c2C#N)c1
→ x | 0
CSc1nnc(Cn2c(=O)sc3ccccc32)n1CCc1ccccc1
→ x | -4
O=C1C=CC(=O)N1c1ccccc1C(F)(F)F
→ -8.7 | 7
Cc1ccc(C(=O)n2nc(-c3cccnc3)nc2NCc2ccco2)cc1
→ x | -16
O=C(O)CCCC1=NS(=O)(=O)c2ccccc2N1
→ x | 4
O=C(O)C1C2CCC(CC2)C1C(=O)O (stereo not drawn)
→ x | -30
CC(C)N1CCS(=O)(=O)CC1
→ 1.0 | x
COC(=O)COc1cccc2c(=O)n(CC(N)=O)ccc12
→ x | -12
O=C(CSCc1ccco1)CN1CCc2ccccc21
→ -0.2 | 8
CCN(CC)C(=S)SC1CS(=O)(=O)CC1O (stereo not drawn)
→ x | 19
Cc1oc(/C=N/NS(=O)(=O)c2ccccc2)cc1Br
→ 4.0 | 2

# Continuation:
# Values run as follows: MgrA-DNA mod | Sa helicase inh
CSc1ccccc1C(=O)NCCOc1ccccc1C
→ 2.5 | -2
N#CCCN1CCn2c3ccc(C4CCCCC4)cc3c3cccc1c32
→ 1.1 | 6
Cn1nc(C(=O)Nc2ccc(Cl)cc2)ccc1=O
→ x | -9
CC1CC(=O)Nc2ccccc2N1S(=O)(=O)c1cn(C)cn1 (stereo not drawn)
→ x | -16
O=C(Nc1nnc(CCS(=O)(=O)c2ccc(Br)cc2)s1)c1ccco1
→ 2.0 | x
COc1ccc(N2C(=O)/C(=C/c3ccc(OCC#N)c(OC)c3)C(=O)NC2=S)cc1
→ 6.4 | x
Cc1ccc(-c2nc(=O)c3ccccc3o2)cc1
→ -2.2 | x
CSc1nnc(CCNC(=O)NCc2ccccc2)n1C
→ -2.0 | 15
COc1ccc(-c2noc(CNC(=O)COc3ccccc3)n2)cc1
→ 2.2 | 10
CC1CN(C)C(C)C(/C=C(/C#N)C(N)=S)C1=O (stereo not drawn)
→ 1.0 | 7
CCCn1c(=O)c2sccc2n2c(CCCC(=O)NCc3cccnc3)nnc12
→ x | -12
CC(C)=C1SC(N2CCN(c3ccccc3)CC2)=NC1=O
→ x | -7
O=C(Nc1cccc(C(=O)NCc2ccc3c(c2)OCO3)c1)C1=CSCCO1
→ x | 4
CCOC(CN(c1ccc(F)cc1)S(=O)(=O)c1ccc(F)cc1F)OCC
→ 2.8 | x
CCOc1ccc(CN2CCNC(=O)C2CC(=O)OC)cc1 (stereo not drawn)
→ x | -21
O=C(CSCc1ccco1)c1ccccc1F
→ 6.3 | -8
CC(c1ccccc1)n1cc(C(=O)NCC2COc3ccccc3O2)nn1 (stereo not drawn)
→ 2.5 | 15
COc1ccccc1N1CCN(C2CCN(Cc3cc(OC)c(OC)c(OC)c3)CC2)CC1
→ 1.0 | -8
O=C(CSc1nc2ccccc2o1)OCC(=O)c1ccccc1
→ x | 4
COc1ccccc1N1CCN(CC(O)COc2c(F)cc(Br)cc2F)CC1 (stereo not drawn)
→ x | -12
CC(NC(=O)CSc1n[nH]c(=O)[nH]c1=O)C1CC2CCC1C2 (stereo not drawn)
→ x | -8
CCOC(=O)N1CCN(Cn2c(=S)sc3ccccc32)CC1
→ x | -6
O=C(COC(=O)c1cc(-c2ccco2)nc2ccccc12)Nc1ccc(N2CCOCC2)cc1
→ x | 2
C=CCNC(=O)c1cnn2c(C(F)F)cc(-c3ccccc3)nc12
→ x | -4
CCCOc1ccc(C=Nc2ccc(N3CCN(CC)CC3)cc2)c(O)c1
→ x | -6
O=C(CSc1c2c(nc3ccccc13)CCCC2)NCCC1=CCCCC1
→ 0.8 | 12
CCOC(=O)c1cccc(NC(=O)N2CCOCC2)c1
→ -2.7 | 3
COc1ccc(C)cc1NC(=O)CCC(=O)c1ccc2c(c1)OCCCO2
→ x | -3
O=C(CSc1nc2c(oc3ccccc32)c(=O)n1CC1CCCO1)Nc1ccccc1 (stereo not drawn)
→ x | 3
COc1ccc(NC(=S)NNc2ccc(C(=O)O)cc2)cc1
→ x | 3
O=C1CCC(C(=O)NCCCn2ccc3ccccc32)=NN1
→ x | 4
CCOC(=O)c1ccoc1COC(=O)c1ccc(C)c(C)c1
→ x | 17
CCC(CO)Nc1nnc(-c2ccccc2)c2ccccc12 (stereo not drawn)
→ -4.1 | -10
Oc1ccccc1C(=S)N1CCN(C(=S)c2ccccc2O)CC1
→ x | 2
CCOC(=O)C(Cc1c[nH]c2ccccc12)NC(=O)c1ccc(Br)cc1 (stereo not drawn)
→ 0.7 | x
CCC(=O)Nc1nonc1-c1ccc(OC)cc1
→ x | -18

# Assay outcomes from PubChem.
